Assay outcomes: PubChem BioAssay, National Center for Advancing Translational Sciences (NCATS)
Menin MLL FP FL – qHTS Assay for Inhibitors Targeting the Menin-MLL Interaction in MLL Related Leukemias: Competition With Fluorescein Labeled MLL-derived Peptide | Fluorescence polarization, fluorescein-MLL peptide displacement from menin | FP activity change, % at 61.4 µM | 290,000 tested, under 10 active | AID 1766, 2009; inconclusive = falling polarisation curve, or a change in total fluorescence; inactive = total fluorescence flat and polarisation flat or rising; no compound was filed as active; the % refers to the polarisation; negative = inhibition;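 note: % of control where 0% means no effect; inhibitors lower the polarisation; unlabelled MLL peptide was the positive control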
TRPML1 blocker – qHTS for Inhibitors of the Human Mucolipin Transient Receptor Potential 1 (TRPML1); AID 624415, 2012; Mucolipin-1 (Homo sapiens), Q9GZU1; activity change, negative = inhibition, % (no concentration beside the values); hit rate 0.02% among 390,000; TRPML1-inducible cells, Ca2+ dye fluorescence, FDSS; active compounds read low; inhibition of EC80 agonist-evoked calcium signal; in the data active means activity change below about -50%; inconclusive means about -30% to -50%; inactive means above about -30%;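 note: stimulus is agonist 54-4 at its EC80 concentration; % is set by controls: 0 for no effect and ±100 for the full control effect; compound concentration not given in the record; the text of the record puts the active cut at -80%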
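Calcium fluorescence in TRPML1-DL cells induced overnight with Tet: a 110 s read after compound pin addition, then a 110 s antagonist read after challenge with 54-4 at 4 uM final (EC80).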
gsp antagonist – qHTS for Antagonists of gsp, the Etiologic Mutation Responsible for Fibrous Dysplasia/McCune-Albright Syndrome: qHTS | Potency, µM (series often up to 76.9 µM), for the others: at the top dose activity change, negative = inhibition, actives largely listed as inhibitors | hit rate 0.4% among 340,000 | gsp-mutant cells, cAMP HTRF, 30 min; control for the full effect not named in the record | AID 624288, 2012; active = falling curve of any shape with a large fitted effect; inconclusive = falling curve, mostly with a smaller effect; inactive = flat or rising curve; cell line not stated here;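 note: intracellular cAMP measured with PDE inhibitor Ro 20-1724 present during compound exposure; potency is the fitted concentration of half-maximal effect; % is set by controls: 0 for no effect and ±100 for the full control effect; nearly all actives have a fitted effect of over 65% in size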
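Cells in G418 medium, seeded 16-24 h, 37C; buffer exchange to DPBS + 1 mM CaCl2, 0.5 mM MgCl2, 0.05% BSA; cpds in DMSO + […] (300 uM stock), 30 min 37C; HTRF cAMP detection.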
TRPV1 potentiator – HTS Assay for Compounds that Act as Potentiators of the Vanilloid Receptor 1; TRPV1-expressing cells, Fluo-8 calcium influx, capsaicin EC20 potentiation; host cell line not named in the record; control for the full effect not named in the record; potentiation, % at 8.33 µM; hit rate 0.02% among 320,000; AID 540277, 2011; active means potentiation above 80%; inconclusive means 30% to 80%; inactive means below 30%; note: 0% is about no effect
Target sequence (Q8NER1 whole entry, looked up): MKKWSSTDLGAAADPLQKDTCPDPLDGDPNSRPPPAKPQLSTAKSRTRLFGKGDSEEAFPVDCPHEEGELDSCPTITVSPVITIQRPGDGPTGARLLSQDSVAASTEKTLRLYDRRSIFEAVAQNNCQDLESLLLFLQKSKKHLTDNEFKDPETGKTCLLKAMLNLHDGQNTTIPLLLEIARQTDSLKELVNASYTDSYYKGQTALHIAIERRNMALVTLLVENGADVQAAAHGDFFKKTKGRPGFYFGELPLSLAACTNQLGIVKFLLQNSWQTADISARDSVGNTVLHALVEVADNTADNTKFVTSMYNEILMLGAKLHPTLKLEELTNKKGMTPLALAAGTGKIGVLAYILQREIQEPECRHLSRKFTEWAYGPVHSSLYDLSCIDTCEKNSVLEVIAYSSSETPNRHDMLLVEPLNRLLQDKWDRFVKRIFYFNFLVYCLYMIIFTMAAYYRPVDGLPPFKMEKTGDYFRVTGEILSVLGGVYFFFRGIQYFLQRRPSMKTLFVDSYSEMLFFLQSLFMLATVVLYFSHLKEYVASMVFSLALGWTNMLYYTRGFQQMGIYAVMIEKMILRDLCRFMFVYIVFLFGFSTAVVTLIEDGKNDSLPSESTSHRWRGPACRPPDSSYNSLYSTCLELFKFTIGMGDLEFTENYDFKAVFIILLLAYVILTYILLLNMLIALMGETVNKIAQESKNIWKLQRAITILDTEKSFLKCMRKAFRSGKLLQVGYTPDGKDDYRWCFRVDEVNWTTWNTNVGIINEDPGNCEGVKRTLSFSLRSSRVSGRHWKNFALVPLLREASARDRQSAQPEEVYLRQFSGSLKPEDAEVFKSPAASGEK
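Cells expressing TRPV1 were dye-loaded with Fluo-8 and read kinetically: 10 s baseline, 3 min after compound (agonist portion), then 2 min after EC20 capsaicin (allosteric enhancer portion). Calcium-bound dye fluorescence at 480/520 nm.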
Sfp inh – qHTS Assay for Inhibitors of Bacillus subtilis Sfp phosphopantetheinyl transferase (PPTase) | hit rate 3.5% among 310,000 | Potency, µM, inactives show max response, negative = inhibition, usual class: inhibitors | AID 1490, 2009 | Biochemical Sfp PPTase activity, qHTS | 4'-phosphopantetheinyl transferase ffp (Bacillus subtilis), Q9F4F7; active = well fitted inhibition curve with a large enough effect; inconclusive = small, poorly fitted or top-dose-only effect, or another doubt; inactive = no such curve, though single readings can be large or run the other way;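 note: the enzyme is Sfp with the accession as filed and its product quenches rhodamine fluorescence; potency is the fitted concentration of half-maximal effect; 0% = enzyme reaction without inhibitor and -100% = no enzyme wells; top concentration of the series not given in the record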
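Compounds were incubated with enzyme (final 15 nM) for 15 min at room temperature before substrate addition started the reaction. Fluorescence at 525 nm excitation, 598 nm emission was recorded immediately and after 30 minutes.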
gsp ag – qHTS for Agonist of gsp, the Etiologic Mutation Responsible for Fibrous Dysplasia/McCune-Albright Syndrome: qHTS. gsp mutant cells, cAMP HTRF, 30 min; control for the full effect not named in the record. Potency, µM (doses to about 76.9 µM), for the others: top-dose activation (cAMP increase), usual class: activators. hit rate 0.13% among 340,000; active = well fitted activation curve with a large enough effect; inconclusive = small, poorly fitted or top-dose-only effect, or another doubt; inactive = no such curve, though single readings can be large or run the other way; cell line not stated here;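 note: phosphodiesterase inhibitor Ro 20-1724 added with compounds to block cAMP breakdown; potency is the fitted concentration of half-maximal effect; nearly all actives have a fitted effect of over 60% in size; about a fifth of the inactives were tested at one dose only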
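Cells in DMEM/10% FBS with G418 were pretreated with compounds in DMSO plus […] (300 uM stock) for 30 min at 37C. cAMP was measured by HTRF (cAMP-d2 plus anti-cAMP antibody-K) after 30 min at room temperature.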
ClpP mod – qHTS Assay for Activators of ClpP | ATP-dependent Clp protease proteolytic subunit (Bacillus subtilis (strain 168)), P80244 | purified B. subtilis ClpP, FRET peptide cleavage, 20 min | Potency, µM (top dose mostly 57.5 µM), inactives show at the highest dose activity change, negative = active | hit rate 1.9% among 340,000; active = well fitted falling curve with a large enough effect; inconclusive = small, poorly fitted or top-dose-only effect; inactive = no such curve, though single readings can be large or run the other way; note: potency is the fitted concentration of half-maximal effect; the source files actives as falling curves though it sought activators and does not explain the sign; nearly all actives have a fitted effect of over 65% in size; many hits overshoot -100%
Target sequence (P80244 whole entry, looked up): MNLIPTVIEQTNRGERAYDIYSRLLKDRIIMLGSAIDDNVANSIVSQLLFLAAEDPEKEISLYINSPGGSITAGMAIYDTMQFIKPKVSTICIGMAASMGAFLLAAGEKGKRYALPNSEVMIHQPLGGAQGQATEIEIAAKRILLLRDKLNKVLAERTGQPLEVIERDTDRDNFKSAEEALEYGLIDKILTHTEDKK
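Purified B. subtilis ClpP, 10 microg/mL final in Tris/HCl pH8 with KCl, BSA, glycerol and Tween-20, cleaved an Abz/nitrotyrosine-quenched decapeptide. Fluorescence (ex 320, em 430) was read at 0 and 20 min at room temperature. Delta was normalized to 5.8 microM ADEP and DMSO/no-enzyme controls.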
Starred values were filed as active, the others as inactive; ? = inconclusive; . = no result given; & = joins results of further samples; [ ] = remark or other dose.

Results follow in this order: Menin MLL FP FL	TRPML1 blocker	gsp antagonist	TRPV1 potentiator	Sfp inh	gsp ag	ClpP mod
O=C(NC(=S)Nc1ccc(Cl)c(C(=O)O)c1)c1cccc(COc2ccccc2)c1
→ -2.4	-23	-25%	2	?	-62%[inhibitor]	0.9%
CCC1OC23CCCCC2C(C#N)(C(=N)O3)C1(C#N)C#N (centres undefined)
→ ?	-7	2%	1	-2%	-20%	?
O=C(CCc1ccccc1)N1CCN(c2ccc(F)cc2)CC1
→ -11	15	-12%	-10	9%	-18%	.
Cn1c(SCC(=O)N2CCOCC2)nnc1-c1ccc(Cl)cc1Cl
→ 0.8	0	9%	1	20%	1%	0.4%
CCOC(=O)c1cc2occc2n1CC(=O)N1CCN(C(=O)c2ccco2)CC1
→ 2.6	-15	-20%	9	5%	-59%	-1.0%
CCCCCCOc1ccc(C(CC(N)=O)C(=O)O)cc1 (centres undefined)
→ 1.6	10	3%	9	8%	3%[15.4 µM]	.
COc1ccc(/C=N/NC(=O)c2cccc(Br)c2)cc1Cn1cc(Cl)cn1
→ 3.5	-7	-10%	14	7%	-3%	253%
CCOc1cccc(/C=C/c2ccc3cccc(O)c3n2)c1OC
→ -0.1	13	?	12	79µM*	-1%[15.4 µM]	.
Cc1ccc(-c2nnn(CC(=O)N(CC3CCCO3)C(C(=O)NCC3CCCO3)c3ccc(F)cc3)n2)o1 (centres undefined)
→ -0.1	4	2%	13	5%	-19%	1.0%
CCOC(=O)N1CCN(C(=O)C2CCN(C(=O)c3cc4sccc4n3CC)CC2)CC1
→ 1.1	27	-2%	-7	-1%	-32%	-2.6%
O=[N+]([O-])c1cc2oc3c(c2c(C=NCc2ccccc2)c1O)CCCC3
→ ?	5	-17%	-15	8%	-1%[15.4 µM]	1.9%
COc1cnc(-c2ccccn2)nc1Oc1ccc(F)cc1F
→ -7.1	3	3%	23	11%	-36%[inhibitor]	.
CC(C)(C)N=C1NC(=NC(C)(C)C)c2ccccc21
→ -2.0	-2	-1%	13	2%	-39%	-9.8%
CC1CCN(C(=O)CSc2nc(N)c(NC(=O)c3ccccc3)c(=O)[nH]2)CC1
→ 1.4	-2	6%	7	11%	-28%	-24%
COc1ccc2cc(OCC(=O)NNC(=O)Nc3ccc(C(C)=O)cc3)ccc2c1
→ .	28	8%	-1	-11%	20%	-9.1%
Cc1cc(C)c(C(=O)OCC(=O)NCc2cccs2)c(C)c1
→ 1.3	11	.	11	8%	7%[15.4 µM]	.
Cc1cc[n+](CC[n+]2ccc(C)cc2)cc1
→ .	-16	7%	-7	.	-20%	-3.4%
COC(=O)C1CC(c2c(OC)cc(OC)cc2OC)=NO1 (centres undefined)
→ -0.7	-4	-3%	15	8%	16%	-0.3%
CCN(CC)CCn1c2c(c(SCC(=O)Nc3nccs3)nc1=O)CCCC2
→ .	13	0%	9	.	9%	-5.8%
CC(=O)Nc1ccc(C(F)(F)F)cc1Cl
→ -0.7	0	1%	3	12%	7%[15.4 µM]	-0.5%
N#CCCN(C(=O)COC(=O)CCNS(=O)(=O)c1ccccc1)c1ccccc1
→ .	7	5%	-1	.	8%	-3.1%
CC1CCC(C(C)C)C(OC(=O)Cn2c(-c3ccccc3)[n+](C)c3ccccc32)C1 (centres undefined)
→ 2.4&1.7	-4&20	3%&-9%	5&-14	-9%&1%	?	-3.0%&-9.7%
Cn1c(CCNC(=O)c2ccc(Cl)c(Cl)c2)nnc1SCc1ccc(Cl)c(Cl)c1
→ 0.2	10	10%	-13	?	5%	1.7%
CCCCNc1c(-c2cccc(Sc3ccc(OC)cc3)c2)nc2ccccn12
→ .	29	?	.	.	.	3.9%
CCCc1ccc(C(C)NC(=S)NC2CCCCC2)cc1 (centres undefined)
→ -2.3	5	?	-4	16%	?	-0.2%
CC1(C)C(=O)Nc2ccccc2N1C(=O)COC(=O)c1cc([N+](=O)[O-])ccc1N
→ 3.3	3	-13%	3	16%	-2%	-1.9%
Cc1ccc2c(CSc3nnc(N)s3)cc(=O)oc2c1
→ 3.8	-12	8%	6	-19%	20%	-1.7%
O=C(NNC(=O)c1ccccc1O)c1ccc(Cl)c(S(=O)(=O)N2CCc3ccccc32)c1
→ .	55	?	-10	.	-7%[15.4 µM]	.
CCCc1nc2c(sc3nc4c(cc32)COC(C)(C)C4)c(=O)o1
→ -0.4	-8	1%	-1	-12%	-15%	-9.7%
O=C(CC1(O)C(=O)Nc2ccccc21)c1ccc2c(c1)OCO2 (centres undefined)
→ 4.1	-15	9%	8	21%	?	-12%

Single values from the entries so far:
In gsp ag, Cc1ccc2c(CSc3nnc(N)s3)cc(=O)oc2c1 has 20%
In TRPML1 blocker, CCCCNc1c(-c2cccc(Sc3ccc(OC)cc3)c2)nc2ccccn12 has 29

(list continues)
Results follow in this order: Menin MLL FP FL	TRPML1 blocker	gsp antagonist	TRPV1 potentiator	Sfp inh	gsp ag	ClpP mod
Cc1c(C(=O)N2CCCC2)c(S(=O)(=O)NCCc2ccccc2)c(C)n1C
→ 1.1	5	-2%	-4	7%	2%	-0.4%
CCN(c1ccccc1)S(=O)(=O)c1nnc(NC(=O)C(C)C)s1
→ -0.8	3	7%	4	7%	-3%[15.4 µM]	.
O=C1c2ccccc2C(=O)N1Cc1cc(Cl)c(O)c([N+](=O)[O-])c1
→ -16	23	-1%	3	9%	21%	.
CCC(=O)N1CCc2cc(S(=O)(=O)NC(C(=O)NCc3ccc(C)cc3)C(C)C)ccc21 (centres undefined)
→ -1.5	26	16%	-3	-30%	-28%	-0.7%
Cc1cccc(OCC(=O)NNS(=O)(=O)c2ccccc2F)c1
→ 0.8	-4	13%	12	16%	-1%	.
O=c1ccc(S(=O)(=O)N2CCCC2)cn1Cc1nc(-c2ccccc2)no1
→ .	-4	4%	-29	.	16%	-0.9%
O=C(OCc1cccc([N+](=O)[O-])c1)c1cnccn1
→ -7.0	-1	16%	0	23%	5.6µM*	-0.9%
C[C@@H]([C@@H](O)c1ccccc1)N(C)C(=O)C(N)Cc1ccccc1 (some centres undefined)
→ 0.6	-2	6%	-11	2%	8%	1.3%
O=C(NCc1ccc(Cl)cc1)C1CCCN(S(=O)(=O)c2cnc[nH]2)C1 (centres undefined)
→ 7.6	-3	9%	.	4%	21%	1.4%
Cc1ncoc1C(=O)N1CCc2c([nH]c3ccccc23)C1C(C)(C)C (centres undefined)
→ -5.2	-10	-9%	-1	11%	-1%	0.2%
C=CCn1c(CNS(=O)(=O)c2ccc(Cl)cc2)n[nH]c1=S
→ .	-9	-3%	0	9%	8%	-0.2%
CCNC(=S)N1CCN(S(=O)(=O)c2ccc(Cl)s2)CC1
→ .	2	1%	.	.	-8%[15.4 µM]	-4.2%
CC(=O)N1CCN(Cc2nc3cc(NC(=O)c4ccccc4Cl)ccc3n2C)CC1
→ -2.0	1	-11%	-2	1%	31%[15.4 µM]	.
O=C(CCNC(=O)c1ccc([N+](=O)[O-])cc1)Nc1cc(Cl)ccc1N1CCOCC1
→ .	-8	-12%	1	.	-31%[inhibitor]	-1.4%
Cc1noc(C)c1S(=O)(=O)N(C)C[C@H]1Oc2c(NC(=O)NC(C)C)cccc2C(=O)N([C@H](C)CO)C[C@@H]1C
→ .	0	7%	.	.	25%	0.4%
CC1(c2ccc(Cl)cc2)NC(=O)N(CC(=O)N2CCc3ccccc32)C1=O (centres undefined)
→ .	-4	-11%	.	.	-5%	-0.7%
OCC1CCCN(C(=S)NCCc2ccccc2)C1 (centres undefined)
→ -1.4	0	1%	-18	17%	-27%	-3.8%
COc1ccc(N2Cc3cccc(C(=O)O)c3C2=O)cc1
→ 6.4	23&-5	-1%	2&-5	6%	-36%[inhibitor]	-0.8%
CN(C)CCNC(=O)c1ccc(Cl)s1
→ 2.8	-17	-1%	6	7%	-11%	-0.6%
COc1c(C)cc(Br)cc1C(=O)Nc1ccccc1C
→ -0.5	-5	-18%	-3	-13%	?	-4.1%
COC(=O)C1=C(C)N(CC2CC2)C(=O)N[C@H]1c1ccccc1
→ -4.7[11.7 µM]	-10	5%	.	-2%	-1%	-3.7%
CCOC(=O)c1ccccc1NC(=O)COC(=O)c1ccc(OCC(=O)N2CCOCC2)c(OCC)c1
→ .	14	-29%	.	.	-1%	-8.8%
CC1CCN(S(=O)(=O)c2nnc(NC(=O)COc3ccccc3)s2)CC1
→ -1.2	26	1%	1	14%	-20%	-6.4%
Cc1ccc(CCN2CC(C(=O)NCCCN3CCOCC3)CC2=O)cc1 (centres undefined)
→ 2.0	0	15%	16	5%	-60%[inhibitor]	0.6%
COc1ccc(S(=O)(=O)N2c3ccccc3OCC2C)cc1 (centres undefined)
→ 1.6	3	29%	17	-12%	10%[15.4 µM]	.
COc1ccc(-c2[nH]c(-c3ccccc3)nc2SCC(=O)NCc2ccco2)cc1OC
→ 0.5	-10	-7%	-13	-6%	-13%	?
CC1CCN(c2c(NCC3CCC(C(=O)NCCc4ccc(Cl)cc4)CC3)c(=O)c2=O)CC1 (centres undefined)
→ 2.3	8	?	2	-21%	2%[15.4 µM]	.
O=C(NNS(=O)(=O)c1ccc(F)cc1)c1sccc1-n1cccc1
→ -5.7	-4	1%	16	17%	-15%[15.4 µM]	.
